# Bioassay records deposited in PubChem BioAssay by Johns Hopkins Ion Channel Center.
# CHT PAM = allosteric activators of human choline transporter CHT; Q9GZV3; CHT-expressing cells, membrane potential dye, choline EC20; active compounds read high; LV-AA mutant CHT in HEK293 cells; B-score at 10 µM; 310,000 compounds, 0.49% hits;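 active = initial fluorescence not abnormally high and integrated response B-score, plate-corrected, over 3 SD above library mean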
# Target sequence (Q9GZV3 whole entry, looked up): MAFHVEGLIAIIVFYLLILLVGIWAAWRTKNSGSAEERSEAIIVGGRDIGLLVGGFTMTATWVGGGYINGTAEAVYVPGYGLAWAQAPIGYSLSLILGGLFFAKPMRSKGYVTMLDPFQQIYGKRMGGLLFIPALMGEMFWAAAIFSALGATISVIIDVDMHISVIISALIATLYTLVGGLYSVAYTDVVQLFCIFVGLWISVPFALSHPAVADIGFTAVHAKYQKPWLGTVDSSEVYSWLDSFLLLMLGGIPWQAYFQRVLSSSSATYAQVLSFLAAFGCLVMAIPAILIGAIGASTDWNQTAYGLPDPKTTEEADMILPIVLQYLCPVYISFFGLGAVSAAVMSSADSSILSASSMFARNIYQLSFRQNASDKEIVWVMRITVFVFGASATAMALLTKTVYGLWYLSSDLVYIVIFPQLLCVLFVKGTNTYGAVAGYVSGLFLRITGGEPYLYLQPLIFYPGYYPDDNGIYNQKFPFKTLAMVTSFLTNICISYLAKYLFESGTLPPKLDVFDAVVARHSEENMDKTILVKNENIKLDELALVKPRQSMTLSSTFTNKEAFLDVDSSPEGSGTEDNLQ
# Calls only; i = inactive. Not all compounds are listed, and most or all hits are left out here.
Molecule | CHT PAM
CC(NC(=O)c1c(F)cccc1Cl)c1ccc(-n2ccnc2)cc1 (stereo unspecified) | i
Cc1cc(C)cc(CC2CC(=O)N(c3nc(C)cc(C)n3)C2=O)c1 (stereo unspecified) | i
COC(=O)c1ccc(C(C(=O)NCc2ccccc2)N(Cc2ccco2)C(=O)c2cnccn2)cc1 (stereo unspecified) | i
CC(NC(=O)c1cnc2ccccc2n1)c1ccccc1 (stereo unspecified) | i
Cc1c(Cl)cccc1NC(=O)CCCCCN1C(=O)CCC1=O | i
CCn1c(CCNC(=O)c2ccc(OC)cc2)nnc1SCC(=O)Nc1ccccc1F | i
CCOC(=O)c1c(NC(=O)CN2C(=O)NC(C)(c3ccc(Cl)cc3)C2=O)sc(C(=O)NC)c1C (stereo unspecified) | i
COc1ccc(C(=O)N/C(=C\c2ccco2)C(=O)NCCCn2ccnc2)cc1 | i
CCOC(=O)N1CCN(C(=S)NC)CC1 | i
Cc1nn(C(=O)c2ccco2)c(C)c1Sc1ccc(Cl)cc1 | i
CC(NC(=O)c1ccccc1Br)c1nnc(SCC(=O)NC2=NCCS2)n1C (stereo unspecified) | i
CCOC(=O)C1=C(C)NC(=S)NC1c1ccc(C)s1 (stereo unspecified) | i
Cc1cc(C)n(C(=O)C2CCCN2S(=O)(=O)c2ccc(Cl)cc2)n1 (stereo unspecified) | i
Cc1ccc(NC(=O)c2ccc(NS(=O)(=O)c3c(C)noc3C)cc2)cc1C | i
COc1cccc(C2Nc3ccccc3NC3=C2C(=O)CC(C)(C)C3)c1 (stereo unspecified) | i
O=C(Nc1ccncc1)c1ccc(F)cc1 | i
COc1ccccc1NC(=O)CCS(=O)(=O)c1ccc2c(c1)NC(=O)C(C)S2 (stereo unspecified) | i
O=C(C1CCC(CNc2nc(=S)[nH]c3ccccc23)CC1)N1CCN(c2ccccn2)CC1 (stereo unspecified) | i
CNC(=O)CSc1nnc(-c2ccco2)n1-c1ccc(C)cc1 | i
O=C(COc1ccc(F)c(Cl)c1)N1CCN(c2ccccn2)CC1 | i
Cc1csc(NC(=O)c2c(-c3c(Cl)cccc3Cl)noc2C)n1 | i
COc1ccc(NC(=O)c2ccc(-c3ccc([N+](=O)[O-])cc3)o2)cc1 | i
Cc1nn(-c2ccccc2)cc1/C=N/NC(=O)c1cccs1 | i
COc1ccc(NC2CCCN(C(=O)CCCn3cncn3)C2)cc1OC (stereo unspecified) | i
COc1cccc(/C=N/n2cnnc2)c1OCc1ccccc1 | i
CC(=O)c1cccc(NC(=O)C(CC(C)C)NC(=O)C2CCCCC2)c1 (stereo unspecified) | i
C=CCOc1ccc(C2CC(C)=NN2c2ccccc2)cc1 (stereo unspecified) | i
COc1ccc(N=C2SC(CC(=O)Nc3ccccc3)C(=O)N2CC2CCCO2)cc1 (stereo unspecified) | i
CCOc1ccccc1NC(=O)CN1CCc2ccccc2C1 | i
CCc1ccc(C(O)(c2ccccc2OC)C(CN2CCOCC2)c2ccccc2)cc1 (stereo unspecified) | i

# Shown as labelled records: four of the compounds above
> CCOC(=O)N1CCN(C(=S)NC)CC1
  CHT PAM = i

> Cc1nn(C(=O)c2ccco2)c(C)c1Sc1ccc(Cl)cc1
  CHT PAM = i

> CC(NC(=O)c1ccccc1Br)c1nnc(SCC(=O)NC2=NCCS2)n1C (stereo unspecified)
  CHT PAM = i

> CCOC(=O)C1=C(C)NC(=S)NC1c1ccc(C)s1 (stereo unspecified)
  CHT PAM = i

# Returning to the listing; the 7 compounds before the break are reprinted first.
Molecule | CHT PAM
COc1ccc(NC2CCCN(C(=O)CCCn3cncn3)C2)cc1OC (stereo unspecified) | i
COc1cccc(/C=N/n2cnnc2)c1OCc1ccccc1 | i
CC(=O)c1cccc(NC(=O)C(CC(C)C)NC(=O)C2CCCCC2)c1 (stereo unspecified) | i
C=CCOc1ccc(C2CC(C)=NN2c2ccccc2)cc1 (stereo unspecified) | i
COc1ccc(N=C2SC(CC(=O)Nc3ccccc3)C(=O)N2CC2CCCO2)cc1 (stereo unspecified) | i
CCOc1ccccc1NC(=O)CN1CCc2ccccc2C1 | i
CCc1ccc(C(O)(c2ccccc2OC)C(CN2CCOCC2)c2ccccc2)cc1 (stereo unspecified) | i
Cc1ccc(NC(=O)CCCCCN2C(=O)[C@@H]3Cc4ccccc4CN3C2=O)c(Cl)c1 | i
O=[N+]([O-])c1ccc(/C=N/n2c(-c3ccccc3)n[nH]c2=S)cc1 | i
OCCCNCc1ccc(Cl)cc1Cl | i
O=C(CCc1ccccc1)NC(=S)Nc1ccccc1[N+](=O)[O-] | i
c1csc(-c2nn3c(C4COc5ccccc5O4)nnc3s2)c1 (stereo unspecified) | i
CCSc1nc2ccccc2n1C(=O)c1ccc(S(=O)(=O)N2CCCCCC2)cc1 | i
COC(=O)c1ccc(C(=O)NC2CC(C)(C)Cc3c2cnn3-c2ccc(F)cc2)nc1 (stereo unspecified) | i
O=C(CSc1nnc(NC2CCCCC2)s1)NN1C(=O)NC2(CCCCC2)C1=O | i
CCOC(=O)CSc1nc2sc(C(=O)O)c(C)c2c(=O)[nH]1 | i
COCCCNC(=S)N1CCN(c2nc(C)nc3sc4c(c23)CCCC4)CC1 | i
O=C(Cc1ccsc1)NNC(=O)c1ccc(F)cc1 | i
Cn1c(-c2ccccc2)cnc1SCC(=O)N1CCCCC1 | i
Nn1c(SCc2cccc(C(F)(F)F)c2)nnc1-c1ccco1 | i
CC1=NN(/C(=N\c2nnc(C)s2)Nc2ccc(C)cc2)[C@H](c2ccc(C)cc2)S1 | i
CC(=O)C(=Nc1cccc(Cl)c1)NNc1ccccc1C | i
COc1ccc(N=CC2=C(O)CCCC2=O)cc1 | i
COc1ccc(-c2cc(C(F)F)n3ncc(C(=O)N4CCN(C(=O)c5ccco5)CC4)c3n2)cc1 | i
O=C(c1cnn2c(C(F)(F)F)cc(-c3cccs3)nc12)N1CCCC1 | i
Cc1cnc(NC(=O)CSc2nnc3ncccn23)s1 | i
CCOc1ccccc1C(=O)NCCCCNC(=O)c1ccccc1OCC | i
O=C(/C=C/c1cccc2ccccc12)NCCC1=CCCCC1 | i
Cc1cccn2c(=O)c(C=O)c(N3CCN(c4ccc(F)cc4)CC3)nc12 | i
Cc1ccccc1NC(=O)NNC(=O)CCc1ccccc1 | i
Cc1ccc(C)c(N2CCN(CC3CC=CCC3)CC2)c1 (stereo unspecified) | i
O=C(Nc1cn(-c2ccccc2)nc1-c1ccc(Cl)cc1)c1ccccc1 | i
CCOc1ccc(C(=O)C2CCN(CC(=O)Nc3ccccc3N3CCOCC3)CC2)cc1 | i
O=C(CNC(=O)c1ccc(F)cc1)N/N=C/c1cccnc1 | i
COc1ccc(NC(=O)CNS(=O)(=O)c2ccccc2)cc1Cl | i
COc1ccc(NC(=O)CSc2nnc(Cc3ccccc3)c(=O)n2N)cc1 | i
COc1ccc(-c2csc(N3C(=N)SCC3=O)n2)cc1 | i

# 3 entries out of the list, sorted by SMILES length, low to high.
Molecule | CHT PAM
Cc1ccccc1NC(=O)NNC(=O)CCc1ccccc1 | i
c1csc(-c2nn3c(C4COc5ccccc5O4)nnc3s2)c1 (stereo unspecified) | i
COC(=O)c1ccc(C(C(=O)NCc2ccccc2)N(Cc2ccco2)C(=O)c2cnccn2)cc1 (stereo unspecified) | i

# Following part.
Molecule | CHT PAM
COc1ccccc1NCC(=O)Nc1cc(S(=O)(=O)N2CCOCC2)ccc1N1CCOCC1 | i
COc1ccc(-c2[nH]ncc2CN2CCC(N3CCSCC3)CC2)cc1F | i
COc1cc2[nH]c(=O)n(CCCCCC(=O)N3CC=C(c4ccccc4)CC3)c(=O)c2cc1OC | i
COc1nonc1NCn1nc(C)cc1C | i
CC(=O)Nc1ccc(NC(=O)CSc2ccc3nnc(-c4ccccn4)n3n2)cc1 | i
CCOc1nc(C)ccc1-c1noc(-c2ccccn2)n1 | i
COc1ccc(-c2noc(CCC(=O)NCCN(C)Cc3ccccc3)n2)cc1 | i
O=C(Nc1cnn(C23CC4CC(CC(C4)C2)C3)c1)c1cc(-c2ccccc2)on1 | i
CCCN1CCN(c2nc3c([nH]2)c(=N)ncn3CC(O)CO)CC1 (stereo unspecified) | i
Cc1nnc(SCC(=O)N2c3ccccc3CC2C)s1 (stereo unspecified) | i
Cc1cc(N2CCOCC2)nc2ccc(NC(=O)C3CCC(C)CC3)cc12 (stereo unspecified) | i
CCCCCNCc1cccn1C | i
Cc1cccc2sc(NNC(=O)C3=COCCO3)nc12 | i
COc1ccc(/C(C)=N/NC(=O)c2nnn(-c3nonc3N)c2-c2ccccc2)cc1 | i
CCC(=O)N(Cc1cc2cc(OC)ccc2[nH]c1=O)c1ccc(C)cc1 | i
Cc1ccc(NS(=O)(=O)c2cccc3nsnc23)cc1[N+](=O)[O-] | i
CO/N=C/C(C#N)=C/c1cc(C(=O)c2ccc(F)cc2)cn1C | i
CCOc1ccccc1N(CC(=O)Nc1ccc(OC)c(OC)c1)S(=O)(=O)c1ccccc1 | i
COc1ccccc1CNC(=O)COC(=O)c1ccc(Cl)c(N)c1 | i
Cc1cc(N)ccc1-n1c(C)ccc1C | i
O=C(CCc1ccc(S(=O)(=O)NC2CCCCC2)cc1)NCc1ccccn1 | i
COc1ccc(NC(=O)C2CCCO2)cc1Cl (stereo unspecified) | i
CN(C)C(=O)c1ccc(NC(=O)COC(=O)c2cc(S(=O)(=O)N(C)C)ccc2N2CCCC2)cc1 | i
COc1cc(CCC(=O)N2CCN(c3ccccc3)CC2)cc(OC)c1OC | i
O=C(COc1ccccc1Cl)NNC(=O)C1CCCO1 (stereo unspecified) | i
COC(=O)C(C)N(C#N)c1nc(NC(C)C)nc(SC)n1 (stereo unspecified) | i
CC(/C=C/c1ccc2c(c1)OCO2)=N\NC(=O)c1ccccc1 | i
COc1ccc2c(CC(=O)Nc3nnc(C4CC4)s3)coc2c1 | i
COc1ccc(-c2nc(CSCC(=O)NCc3ccc4c(c3)OCO4)c(C)o2)cc1 | i
O=C(Cc1ccccc1)Nc1nnc(-c2cccc([N+](=O)[O-])c2)s1 | i

# Continuation.
Molecule	CHT PAM
Cc1[nH]c(=O)c(C#N)c(C)c1CCC(=O)N(C)CC(=O)Nc1ccc(Cl)c(Cl)c1	i
CC(CCc1ccccc1)NC(=O)C1CCN(C(=O)c2sccc2-n2cccc2)CC1 (stereo unspecified)	i
O=C(C1CCC(=O)N(C2CC2)C1)N1CCN(c2ccccc2Cl)CC1 (stereo unspecified)	i
Cc1ccc(CNC(=O)CCC(=O)N2CC(C)Sc3ccccc32)cc1 (stereo unspecified)	i
CC(NC(=O)Nc1cccc([N+](=O)[O-])c1)c1ccc2c(c1)OCO2 (stereo unspecified)	i
Cc1ccnc(NS(=O)(=O)c2ccc(NS(=O)(=O)Cc3ccccc3)cc2)n1	i
Cc1ccc(S(=O)(=O)N(CC(O)CN2CCCCC2)c2ccccc2)cc1 (stereo unspecified)	i
CCn1c(-c2ccsc2)nc2c1c(=O)[nH]c(=O)n2Cc1ccccc1	i
C/C(Cn1cnc([N+](=O)[O-])n1)=N\NC(=O)c1cccnc1	i
COc1ccccc1NC(=O)CN1CCN(CC(=O)Nc2cc(NC(C)=O)ccc2OC)CC1	i
CC1=C(C)CC(C(=O)NCCc2ccccc2)C(C(=O)O)C1 (stereo unspecified)	i
CCC(CO)n1c(SCc2cc(=O)oc3cc(C)ccc23)nc2ccccc2c1=O (stereo unspecified)	i
Cc1ccc(/C=N/NC(=O)c2ccccc2OCc2cccc(Br)c2)o1	i
CCC(C)(C)n1nnnc1C(c1ccc(OC)c(OC)c1)N1CCN(c2ccc(OC)cc2)CC1 (stereo unspecified)	i
O=C1CCCN1S(=O)(=O)c1ccc(F)cc1	i
Cc1ccccc1CNC(=O)CCc1ccccc1	i
COc1ccc(C)cc1NC(=O)CC(O)(C(F)(F)F)C(F)(F)F	i
COC(=O)c1cc(S(=O)(=O)Nc2ccsc2C(=O)OC)oc1C	i
CCOc1ccc2nc(CN3CCN(Cc4ccsc4)C(CCO)C3)ccc2c1 (stereo unspecified)	i
COc1ccc2oc(C(=O)N(C)CCOc3ccccc3)c(C)c2c1	i

# (further entries)
Molecule	CHT PAM
COc1cc(C(=O)OC2CC3CCC2(C)C3(C)C)ccc1OC(C)=O (stereo unspecified)	i
Cc1cnc(NC(=O)c2sc3ccccc3c2Cl)s1	i
CC1CCN(c2ccc(C(=O)Nc3ccc4c(c3)OCO4)cc2[N+](=O)[O-])CC1	i
Cc1cc(NC(=O)CSc2nc(-c3ccc(Br)cc3)nc3c2c(=O)n(C)c(=O)n3C)no1	i
COc1ccc(CNC(=O)[C@@H]2CC=C[C@@H]3CCN(C4CC4)C(=O)[C@@H]32)cc1	i
CCN(CC)S(=O)(=O)c1cc(C(=O)c2nccn2C)ccc1Cl	i
CC(C)c1ccc(NC(=S)NCc2ccc3c(c2)OCO3)cc1	i
CCOCC(O)CNC(=O)c1ccc2nc(Cc3ccc(OC)c(OC)c3)oc2c1 (stereo unspecified)	i
CCCCN(C(=O)c1ccccc1Br)C1CCS(=O)(=O)C1 (stereo unspecified)	i
c1ccc(C2(c3ccccc3)OCC(Cn3cncn3)O2)cc1 (stereo unspecified)	i
COc1cc(/C=C/c2cc[n+](C)cc2)ccc1OCC(=O)Nc1ccc(Cl)c(Cl)c1	i
CCCCN(c1ccccc1)S(=O)(=O)c1cccc2cccnc12	i
CCOc1ccc(-c2nnc(-c3ccco3)o2)cc1OCC	i
COc1ccc(C(=O)/C=C/c2cc(C(=O)O)cc3c2OCOC3)c(O)c1	i
CC1Cc2ccccc2N1C1=CC(=O)CCC1 (stereo unspecified)	i
Cc1ccc(N(Cc2cc3ccccc3[nH]c2=O)S(C)(=O)=O)cc1	i
COc1ccc(CCN(Cc2cc3ccc(C)cc3[nH]c2=O)C(C)=O)cc1OC	i
Cc1ccc(C(=O)NC(=S)Nc2ccc3[nH]c(=O)[nH]c3c2)cc1C	i
COc1cc(C#N)c(NS(=O)(=O)c2ccc3[nH]c(=O)sc3c2)cc1OC	i
CCOc1ccc(OCCCCn2cnc3ccccc3c2=O)cc1	i
CCc1nnc(NC(=O)CSc2nnc(-c3cccnc3)n2C)s1	i
O=C(Nc1ccccc1)C12CC3CC(C1)CC(n1cnc([N+](=O)[O-])n1)(C3)C2	i
